Assay outcomes as filed in PubChem BioAssay.
Methyltransferases: Primary Screen for Target Class Profiling of Small Molecule Inhibitors of Methyltransferases; 25,000 tested, 3.9% active; purified enzyme, MTase-Glo SAH luminescence; hits give low values; calls only at 40 µM; AID 1745853, 2022; active = -50% or lower on at least one of six enzymes; inconclusive = the cases between; inactive = as a rule above -30% on all six;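 further: enzymes were COMT GAMT GNMT HNMT NNMT and PNMT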
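Each enzyme was reacted with SAM and its substrate, with compounds tested once at 40 uM; SAH formed was read by MTase-Glo luminescence.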
Calls only; i = inactive; ? = inconclusive. On the % scale 0 is the no-effect control and ±100 the full control effect. These rows are one share of the data, so the mix of outcomes need not match the whole.

canonical_smiles: CCCC[N+]1(C)C2CC(OC(=O)[C@H](CO)c3ccccc3)CC1C1OC12 (stereo partly specified)
  Methyltransferases: i

canonical_smiles: Cc1cccc(C2c3cccn3-c3ccccc3CN2C(=O)Nc2ccc3c(c2)OCCO3)c1 (stereo unspecified)
  Methyltransferases: i

canonical_smiles: COc1cccc(CNC(=O)N2Cc3ccccc3-n3cccc3C2c2ccc(SC)cc2)c1 (stereo unspecified)
  Methyltransferases: i

canonical_smiles: CCCn1cc(C(=O)NC(C(=O)O)c2ccccc2C(F)(F)F)c(C)n1 (stereo unspecified)
  Methyltransferases: i

canonical_smiles: CN(C)c1nc2c(c(N3C[C@H]4CNC[C@@]4(C(=O)O)C3)n1)CCCC2
  Methyltransferases: i

canonical_smiles: CC(=O)[C@H]1CC[C@H]2[C@@H]3CC[C@H]4C[C@H](O)CC[C@]4(C)[C@H]3C(=O)C[C@]12C
  Methyltransferases: i

canonical_smiles: CN(C)CCNC(=O)C1CNCC12CCOCC2 (stereo unspecified)
  Methyltransferases: i

canonical_smiles: CC1c2cccn2-c2ccccc2CN1C(=O)Nc1ccc(F)c(Cl)c1 (stereo unspecified)
  Methyltransferases: i

canonical_smiles: CCC1(N2CCN(C(=O)Cc3c[nH]c4ccccc34)CC2)CCN(S(C)(=O)=O)C1 (stereo unspecified)
  Methyltransferases: i

canonical_smiles: Cc1ccccc1NC(=O)N1Cc2ccccc2-n2cccc2C1c1ccccc1C (stereo unspecified)
  Methyltransferases: i

canonical_smiles: CN=C(NS(=O)(=O)c1ccc(Cl)cc1)N1C[C@H](c2ccccc2)C(c2ccc(Cl)cc2)=N1
  Methyltransferases: ?

canonical_smiles: CCOC(=O)CNC(=O)N1Cc2ccccc2-n2cccc2C1c1ccc(OC)cc1 (stereo unspecified)
  Methyltransferases: i

canonical_smiles: CCC1c2cccn2-c2ccccc2CN1C(=O)Nc1ccc(Br)cc1 (stereo unspecified)
  Methyltransferases: i

canonical_smiles: CC(C)[C@H]1OC(=O)[C@H](Cc2ccccc2)N(C)C(=O)[C@@H](C(C)C)OC(=O)[C@H](Cc2ccccc2)N(C)C(=O)[C@@H](C(C)C)OC(=O)[C@H](Cc2ccccc2)N(C)C1=O
  Methyltransferases: i

canonical_smiles: NNC(=O)c1nn(Cc2ccc(Cl)cc2Cl)c2ccccc12
  Methyltransferases: ?

canonical_smiles: CCOc1ccccc1NC(=O)N1Cc2ccccc2-n2cccc2C1c1ccc(CC)cc1 (stereo unspecified)
  Methyltransferases: i

canonical_smiles: COC1CCCC(C)OC(=O)Cc2cc(O)cc(O)c2C(=O)C1 (stereo unspecified)
  Methyltransferases: i

3 compounds out of the list, ordered by length of the SMILES, smallest number first:
canonical_smiles: CN(C)CCNC(=O)C1CNCC12CCOCC2 (stereo unspecified)
  Methyltransferases: i

canonical_smiles: NNC(=O)c1nn(Cc2ccc(Cl)cc2Cl)c2ccccc12
  Methyltransferases: ?

canonical_smiles: CC(=O)[C@H]1CC[C@H]2[C@@H]3CC[C@H]4C[C@H](O)CC[C@]4(C)[C@H]3C(=O)C[C@]12C
  Methyltransferases: i

2 entries picked at random from those above, as already listed:
canonical_smiles: COc1cccc(CNC(=O)N2Cc3ccccc3-n3cccc3C2c2ccc(SC)cc2)c1 (stereo unspecified)
  Methyltransferases: i

canonical_smiles: CN(C)CCNC(=O)C1CNCC12CCOCC2 (stereo unspecified)
  Methyltransferases: i

Gathered by group: the entries above containing a Cl atom
canonical_smiles: CC1c2cccn2-c2ccccc2CN1C(=O)Nc1ccc(F)c(Cl)c1 (stereo unspecified)
  Methyltransferases: i

canonical_smiles: CN=C(NS(=O)(=O)c1ccc(Cl)cc1)N1C[C@H](c2ccccc2)C(c2ccc(Cl)cc2)=N1
  Methyltransferases: ?

canonical_smiles: NNC(=O)c1nn(Cc2ccc(Cl)cc2Cl)c2ccccc12
  Methyltransferases: ?
